# Vaccinia Venus = inhibitors of vaccinia virus (Venus reporter) | Vaccinia virus Venus reporter expression, fluorescence | Potency, µM (titrated, usually from 36.5 µM), inactives show at the highest dose activity change, negative = inhibition, most hits filed as inhibitors | 0.46% of 330,000 active | AID 720580; active means well fitted inhibition curve with a large enough effect; inconclusive means small, poorly fitted or top-dose-only effect; inactive means no such curve, though single readings can be large or run the other way; tested in A549 cells; note: nearly all actives have a fitted effect of over 30% in size; inactives centre near -10
# Vaccinia mCherry = vaccinia inhibition (mCherry reporter); Potency, µM (doses to about 36.5 µM), for inactives: at the top dose activity change, negative = inhibition, usual class: inhibitors; 0.63% of 310,000 active; Vaccinia virus mCherry reporter infection, fluorescence; about a quarter of the inactives have no number; active = well fitted inhibition curve with a large enough effect; inconclusive = small, poorly fitted or top-dose-only effect; inactive = no such curve, though single readings can be large or run the other way; tested in A549 cells; note: nearly all actives have a fitted effect of over 35% in size; inactives centre near -10
# Active calls of the source: *; i = inactive; u = inconclusive; x = not tested or not shown; [ ] = remark or other dose. % is set by controls: 0 for no effect and ±100 for the full control effect; potency is the fitted concentration of half-maximal effect. This is a random part of the collection; overall some 0.82% were active at least once.
# Every second line gives: Vaccinia mCherry | Vaccinia Venus
(1) Cc1ccc(Cl)cc1NC(=O)[C@@H]1CCC(=O)N1C1OC(=O)c2ccccc21 (stereo not given in full)
    -2% | 7%
(2) CN(C)CCNC(=O)c1ccc2c(=O)n3c(nc2c1)CCCCC3
    -11% | -2%
(3) COc1ccc(C(=O)COC(=O)c2cc(=O)c3ccccc3o2)c(OC)c1
    i | -16%
(4) CCC(=O)c1c[nH]c(C(=O)NCCc2ccccn2)c1
    x | -11%
(5) Cc1ccccc1N/N=C1\CCCNC1=O
    x | -21%
(6) Cc1ccc(Cc2c(-c3ccc(C)cc3)nc3c4ccccc4ccn23)cc1
    -3% | -4%
(7) CCCCn1nnnc1C1(C)CCC(=O)N1Cc1ccc(F)cc1 (stereo not given)
    -8% | 1%
(8) Cc1ccc(C)c(N2CCN(C(C(=O)NC3CCCC3)c3ccco3)CC2)c1 (stereo not given)
    u | -18%
(9) C#CCOCCOCCOCCNc1nc(N2CCN(C(=O)Cn3cc(CCO)nn3)CC2)nc(N2CCN(C(=O)[C@H]([C@@H](C)CC)n3cc(CCCN=C(N)N)nn3)CC2)n1
    i | -4%
(10) CC(=O)N1CCN(c2ccc([N+](=O)[O-])c(NCC3CCCO3)c2)CC1 (stereo not given)
    x | -15%
(11) O=C(/C=C/c1cccs1)N1CCC2(CC1)Oc1ccc(Cl)cc1C(=O)C21CC(c2ccccc2)=NO1 (stereo not given)
    16% | -3%
(12) CCOc1ccc(C(=O)CN2CCN(S(=O)(=O)c3ccc(Cl)cc3)CC2)cc1
    x | 0%
(13) O=C(O)CCCCCn1c(O)c(C=C2N=c3ccccc3=N2)sc1=S
    -18% | -20%
(14) COc1ccc(Br)cc1CNC(=O)C1CCCN(S(=O)(=O)N2CC(C)CC(C)C2)C1 (stereo not given)
    i[7.34 µM] | -18%[7.34 µM]
(15) CCOc1cccc2cc(C(=O)NCc3ccc(Cl)cc3)c(=N)oc12
    -6% | -15%
(16) Cc1nc2sccn2c1CN1CCC2(CC1)CC2C(=O)Nc1ccc2c(c1)OCO2 (stereo not given)
    -14% | -9%
(17) O=C(NC(=S)NC1CCCCC1)c1ccccc1
    i | -12%
(18) Nc1ccnn1Cc1cccnc1
    -8% | 2%
(19) O=C(Nc1cc(-c2nc3ccccc3o2)ccc1Cl)c1cc([N+](=O)[O-])ccc1N1CCOCC1
    3% | -9%
(20) Cc1ccc2c(c1)c1c3n2CCN(CC(N)=O)C3CCC1 (stereo not given)
    u | -17%
(21) COc1ccc(C(C)(C)C)cc1NC(=S)NCCN1CCOCC1
    i | -20%
(22) O=C(Nc1ccccc1C(F)(F)F)C1(S(=O)(=O)c2ccc(Cl)cc2)CC1
    -5% | 5%
(23) Cc1c(NC(=O)c2ccc(S(=O)(=O)N(C)c3ccccc3)cc2)c(=O)n(-c2ccccc2)n1C
    i | -12%
(24) CC(=O)N1CCN(Cc2nc3cc(NC(=O)COc4ccccc4)ccc3n2C)CC1
    -18% | -10%
(25) Cc1cc(C)c(NC(=O)COc2ccc3c(C)cc(=O)oc3c2)c(C)c1
    -7% | -10%
(26) Cc1cc(C)cc(N(CC(=O)NC2CCCC2)C(=O)CCC(=O)Nc2nccs2)c1
    -14% | 3%
(27) CCN(CC)C(=O)CNC(=O)Cc1ccc(Cl)cc1
    i | -15%
(28) Nc1nnc(-c2ccc(Cl)cc2Cl)s1
    -7% | 3%
(29) CCc1cccc(C)c1NC(=O)C1CN(S(=O)(=O)c2ccccc2)CCN1S(=O)(=O)c1ccccc1 (stereo not given)
    i | 3%
(30) CCCCN(C(=O)C1CCC1)c1c(N)n(CCC)c(=O)[nH]c1=O
    -27% | -4%
(31) COC(=O)c1ccc(C23CC4(C2)[C@H](CN(Cc2ccc(-c5ccccc5)cc2)[C@@H]4c2ccccc2)C3c2ccccc2)cc1 (stereo not given in full)
    -8% | -8%
(32) CNC(=O)COc1coc(CN2CCN(C(=O)c3ccco3)CC2)cc1=O
    -11% | -3%
(33) CC1(C(=O)O)CCCN(C(=O)C2(c3ccc(Cl)cc3)CCCC2)C1 (stereo not given)
    56%[activator] | -2%
(34) CC(C)N(Cc1ccccc1)C(=O)CN1C(=O)NC(Cc2ccccc2)(c2ccccc2)C1=O (stereo not given)
    -9% | -6%
(35) CN(C)c1ccc(C=Nc2cnc3ccccc3c2)cc1
    -16% | -16%
(36) COc1ccc(S(=O)(=O)N(CCCN2CCOCC2)Cc2cccc(OC)c2OC)cc1
    -14%[1.46 µM] | -9%
(37) Nc1ccccc1Sc1ccccc1[N+](=O)[O-]
    -3% | -13%
(38) CN1C(=O)C(O)(C2COC(C)(C)CC2=O)c2cc(Br)ccc21 (stereo not given)
    x | -7%
(39) COC(=O)[C@]1(Cc2ccccc2)N[C@H](CN(C)C(=O)c2ccc(C)cc2)[C@@H]2C(=O)N(C)C(=O)[C@@H]21
    -33% | -14%
(40) CCOC(=O)C1=CC[C@H]2c3c(c4ccccc4n3C)C(=O)C1N2C(=O)OC(C)(C)C
    -3% | -17%
(41) O=C(NCc1ccccc1)C1C(c2ccccc2)=Nc2ccccc2N1C(=O)c1ccncc1 (stereo not given)
    u | -19%
(42) Fc1ccc2nc(Nc3nc4cc5c(cc4s3)OCO5)sc2c1
    -2% | -14%
(43) CCCCC/C=C\C=C\[C@H](O)CCCCCCCC(=O)O
    -20%[0.293 µM] | -18%[0.293 µM]
(44) O=C(/C=C/c1c(Cl)cccc1Cl)N1CCN(c2ncccn2)CC1
    x | -28%
(45) O=C1CCCCC1Sc1nnc(Cc2cccs2)n1CCc1ccccc1 (stereo not given)
    -21% | -12%
(46) c1ccc(C2CSc3ccccc3N2)cc1 (stereo not given)
    -12% | -16%
(47) Cc1cc(C)nc(NC2=NCC(=O)N2c2ccc(F)c(Cl)c2)n1
    x | -10%
(48) CC(=O)NCCC(=O)N1CCc2c([nH]c3ccccc23)C1c1cccc(Cl)c1 (stereo not given)
    -22% | -9%
(49) CC(C)C(C)NC(=O)COc1ccc(-c2ccccc2)cc1 (stereo not given)
    -14% | -11%
(50) CCCOc1ccc(C(=O)NCC(c2ccco2)N(C)C)cc1 (stereo not given)
    i | -9%

# Fetched one by one from the entries so far (7):
# Every second line gives: Vaccinia mCherry | Vaccinia Venus
(47) Cc1cc(C)nc(NC2=NCC(=O)N2c2ccc(F)c(Cl)c2)n1
    x | -10%
(46) c1ccc(C2CSc3ccccc3N2)cc1 (stereo not given)
    -12% | -16%
(44) O=C(/C=C/c1c(Cl)cccc1Cl)N1CCN(c2ncccn2)CC1
    x | -28%
(49) CC(C)C(C)NC(=O)COc1ccc(-c2ccccc2)cc1 (stereo not given)
    -14% | -11%
(45) O=C1CCCCC1Sc1nnc(Cc2cccs2)n1CCc1ccccc1 (stereo not given)
    -21% | -12%
(48) CC(=O)NCCC(=O)N1CCc2c([nH]c3ccccc23)C1c1cccc(Cl)c1 (stereo not given)
    -22% | -9%
(43) CCCCC/C=C\C=C\[C@H](O)CCCCCCCC(=O)O
    -20%[0.293 µM] | -18%[0.293 µM]

# New compounds follow:
# Every second line gives: Vaccinia mCherry | Vaccinia Venus
(51) Cc1ccc(NC(=O)CCN2CCN(C/C=C/c3ccccc3)CC2)cc1
    x | u
(52) O=C(NC(C(=O)c1ccccc1)N1CCCCC1)c1ccccc1 (stereo not given)
    -16% | -15%
(53) Clc1ccccc1-c1nc2ccccc2c2nc3ccccc3n12
    -5% | -12%
(54) Cc1ccc(NC(=O)CSc2ccc3nnc(CCNC(=O)c4ccccc4)n3n2)c(C)c1
    i | -7%
(55) O=C(CCc1ccccc1)NC1C2CC3CC(C2)CC1C3 (stereo not given)
    -21% | -16%
(56) Cc1cccc2sc(NC(=O)c3cccn(Cc4ccccc4)c3=O)nc12
    -13% | -10%
(57) Cc1ccc(NC(=O)C2CCN(c3cc(C)nc4c(-c5ccc(Cl)cc5)c(C)nn34)CC2)c(C)c1
    -5% | -7%
(58) Cn1c(=S)[nH]c2c(c1=O)C(C)(C)Cc1ccccc1-2
    -12% | -13%
(59) O=S(=O)([O-])C/C(=C\c1ccc(Cl)cc1)c1cc[n+](CCO)cc1
    -12% | -1%
(60) Cc1ccc(N2CC(NC(=O)c3cccs3)CC2=O)cc1 (stereo not given)
    -1%[7.34 µM] | -4%[7.34 µM]
(61) COC(=O)C1=CN(c2ccc(C(C)(C)C)cc2)C(N)=C(C#N)C1c1cccc([N+](=O)[O-])c1 (stereo not given)
    u | u
(62) CCc1ccccc1NC(=S)N(CCCN(C)C)Cc1cc2cc3c(cc2[nH]c1=O)OCO3
    -6% | 6%
(63) Cc1cnc(-c2nnc(N(C)C(=O)C3CCOC3)s2)cn1 (stereo not given)
    -14% | -8%
(64) O=C(c1ccc(S(=O)(=O)N2CCCCCC2)cc1)N1CCCC(C(F)(F)F)C1 (stereo not given)
    -2% | -12%
(65) CCOC(=O)c1c[nH]n2c(=S)ncnc12
    i | -8%
(66) CC(C)(C)C1CCC(=O)N2CCC[C@]2(c2ccccc2)C1 (stereo not given in full)
    32%[activator] | 0%
(67) COc1ccccc1OCCOC(=O)Nc1ccccc1
    -14% | -10%
(68) Cc1ccccc1CN1C(=O)c2ccccc2Sc2ccc(C(=O)N3CCCC3)cc21
    -12% | -6%
(69) O=c1[nH]cnc2cc(Cl)ccc12
    -27% | -24%
(70) Cc1ccc(S(=O)(=O)N2CC=C(C(=O)NCCC(C)C)CC2)cc1
    i | -11%
(71) COCCOC(=O)c1cc(C(=O)c2cc(F)ccc2O)coc1=N
    -14% | 11%
(72) COc1ccc2c(c1)C(C)CC(C)(C)N2C(=O)NC1CCCCC1 (stereo not given)
    u | -9%
(73) COc1cc(NS(=O)(=O)c2ccc(N/C=C(\C=O)c3nc4ccccc4o3)cc2)nc(OC)n1
    -1% | 17%
(74) CCN(CC)C(=O)C1=C(C)Nc2ncnn2C1c1cccnc1 (stereo not given)
    i | 4%
(75) O=C1C(Cl)=C(NC(=O)c2ccccc2)C(=O)C(Cl)=C1NC(=O)c1ccccc1
    u | u
(76) COc1ccccc1-c1nc(SCC(=O)O)n[nH]1
    -14% | -3%
(77) COc1ccc(CCn2c(=S)[nH]c3ccc(N4CCOCC4)cc3c2=O)cc1OC
    -2% | -15%
(78) O=[N+]([O-])c1ccc(SCCO)nc1SCCO
    -2%[7.34 µM] | -6%[7.34 µM]
(79) Cc1cc(/C=C2/C(=N)N3C(=NC2=O)SN=C3S(C)(=O)=O)c(C)n1-c1ccccc1F
    i | -1%
(80) NS(=O)(=O)c1ccc(NCc2cc(Cl)ccc2OCc2ccc(F)cc2)cc1
    -22% | -7%
(81) C=CCOc1ccc(C2C(C#N)=C(N)N(Nc3ccccc3)C3=C2C(=O)CC(C)(C)C3)cc1OC (stereo not given)
    x | u
(82) COc1ccc(N(CC(=O)NCc2ccc(F)cc2)C(=O)c2snc(C(N)=O)c2N)cc1OC
    i | -10%
(83) Cc1nnc(SCc2cc(=O)[nH]c(/N=C(\N)Nc3ccccc3Sc3ccccc3)n2)s1
    i | 1%
(84) N[C@@H](Cc1ccccc1)C(=O)N1C[C@H]2C[C@@H](C1)c1cccc(=O)n1C2
    -4% | -2%
(85) CC(C)c1ccc(-c2noc(SCC(=O)N3CCN(c4ccccc4F)CC3)n2)cc1
    -16% | -4%
(86) Cc1ccccc1N1CCN(C2CCCN(C(=O)COc3ccccc3)C2)CC1 (stereo not given)
    -7% | -22%
(87) CCN(CC(=O)Nc1ccc2c(c1)OCCO2)CC(=O)Nc1ccc(C)c(S(=O)(=O)N(C)C)c1
    -14% | -14%
(88) CN(C(=O)COC(=O)c1nn(C)c(=O)c2ccccc12)c1c(N)n(Cc2ccccc2)c(=O)[nH]c1=O
    -12% | -7%
(89) Cn1cc(C(=O)c2ccc(Cl)cc2)cc1-c1nc2ccccc2n1C
    x | u
(90) CCNc1nc(CSc2ccccc2)nc2sc(C)c(C)c12
    -18% | -18%
(91) O=C(Nn1cnnc1)c1cc(-c2cccc(Br)c2)nc2ccccc12
    u | -9%
(92) CC1CCN(S(=O)(=O)c2ccc(NC(=O)C3CCN(C(=O)c4ccco4)CC3)cc2)CC1
    -19% | -18%
(93) O=C(CCC(=O)c1ccc(Br)cc1)Nc1cccc(C(F)(F)F)c1
    x | -11%
(94) Cc1ccc(C)c(N2CCN(C(=O)CCCCCn3c(=O)[nH]c4ccccc4c3=O)CC2)c1
    -11% | -3%
(95) COc1cccc2[nH]c3c(Cl)ncnc3c12
    -16% | -8%
(96) Cn1c(=O)c2c(nc(Cl)n2Cc2ccc(Cl)c(Cl)c2)n(C)c1=O
    i | 0%
(97) COc1ccc(-c2cc(C(=O)N/N=C/c3ccc4c(c3)OCO4)c3ccccc3n2)c(OC)c1
    u | 6%
(98) CC(C)(C)C(C(=O)NCc1ccccc1)N1CCN(CCN2CCOCC2)CC1 (stereo not given)
    2% | -8%
(99) Cc1ccc2nc(/C(C#N)=C/c3ccccc3F)[nH]c2c1
    -14% | -16%
(100) COc1ccc2[nH]cc(S(=O)(=O)c3ccc(C)c(C)c3)c(=O)c2c1
    -6% | -18%

# (list continues)
# Every second line gives: Vaccinia mCherry | Vaccinia Venus
(101) Cc1nc2cc(NC(=O)N3c4ccccc4CC3C)ccc2n1C (stereo not given)
    i | -12%
(102) CN1CCN(c2ccc(NC(=O)c3sc4ccccc4c3Cl)cc2)CC1
    -15% | -17%
(103) COc1ccc(-n2c(=O)c3ccccc3n(CC(=O)OCc3ccccc3)c2=O)cc1OC
    i | 3%
(104) CN(CC(=O)Nc1cccc(S(=O)(=O)N2CCOCC2)c1)CC(=O)Nc1ccc(Cl)c(C(F)(F)F)c1
    -30% | u
(105) COCCNC(=O)CN1C(=O)NC(c2ccccc2)(c2ccccc2)C1=O
    -20% | -11%
(106) CC1CN(S(=O)(=O)c2ccc(C(=O)N(CCCN(C)C)c3nc4c(Cl)cccc4s3)cc2)CC(C)O1 (stereo not given)
    0% | -20%

# Compound activity: PubChem BioAssay, National Center for Advancing Translational Sciences (NCATS)
